# Bioassay records from PubChem.
# PD-1 reversal = activators reversing PD-1 mediated T-cell inhibition, primary screen, luminescence, primary human CD4 T cells, PD-L1 beads; CellTiter-Glo 96 h; activation, % (concentration not given with the values); 29,000 tested, under 10 active; AID 2316, 2010;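 active means replicate mean of 50% or more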;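 further: 0% = median vehicle wells and 100% = positive control; 100 nL library stock added to about 50 µL; numbers are from one replicate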
# Hedgehog inh = Hedgehog pathway signaling inhibitors, primary screen, luminescence, Shh-LIGHT2 cells, Gli-luciferase | 22,000 compounds, 2.1% hits | inhibition, % (concentration not given with the values) | Shh-LIGHT2 Gli-luciferase reporter, 30 h;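 active means replicate mean of 65% or more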;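 further: pathway switched on by Shh-conditioned medium diluted 1 in 25 in low serum; 100 nL library stock added to about 40 µL; 0% = median of neutral wells and 100% = positive control level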
# MITF inh = inhibitors of MITF, primary screen, MITF inhibitor project, cell-based, luminescence | TRPM1 promoter luciferase, 24 h | inhibition, % (concentration not given with the values) | 37,000 compounds, 0.28% hits | AID 2240, 2010;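 active means most replicates at 85% or more, or half of them and the mean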;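 further: human melanocyte line stably carrying TRPM1 promoter luciferase reporter; 0% = vehicle wells and 100% = a positive control; the first replicate is given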
# YB-1 expr inh = inhibitors of YB-1 gene expression, primary screen, cell-based, fluorescence | U2OS, qRT-PCR YB-1 vs CDIP delta delta Cp, 16 h; hits give high values; zero = DMSO, each unit about twofold | delta delta Cp (YB-1 minus CDIP) (test concentration not listed) | 30,000 compounds, 0.37% hits | AID 434959, 2010;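 active means delta delta Cp rounded down to an integer at or above 3, about 3 SD of DMSO wells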;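 further: higher means less YB-1 transcript or more CDIP transcript relative to DMSO; stock transfer was 100 nL into about 100 µL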
# An asterisk follows results filed as active; · = not tested or not shown. Not all compounds are listed (hit frequency here may not be typical).
# Every second line gives: PD-1 reversal	Hedgehog inh	MITF inh	YB-1 expr inh
- CC(C)NC(=O)Nc1ccc2c(c1)C(=O)N([C@H](C)CO)C[C@@H](C)[C@H](CN(C)S(=O)(=O)c1cn(C)cn1)O2
→ 0.1	-25.6	-4.1	-0.471
- O=C(CSc1n[nH]c(-c2ccc(Cl)cc2Cl)n1)Nc1ccc(I)cc1
→ 0.9	·	-13.7	·
- CCN(CC)C(=O)Nc1ccc(OC)cc1
→ -3.2	-32.4	-20.1	0.25
- C[C@@H]1CN([C@@H](C)CO)C(=O)c2cccc(NS(=O)(=O)c3cn(C)cn3)c2O[C@@H]1CN(C)Cc1ccc(-c2ccccc2)cc1
→ 1.0	2.0	-9.9	-0.482
- Cc1ccc(S(=O)(=O)Nc2ccc3c(c2)C(=O)N([C@H](C)CO)C[C@H](C)[C@@H](CN(C)Cc2ccc(C(F)(F)F)cc2)O3)cc1
→ ·	-2.1	2.7	-0.0298
- CCN(CC(=O)Nc1cc(Cl)ccc1OC)S(=O)(=O)c1ccc(C)cc1
→ 1.0	·	-5.3	·
- CC(=O)c1cccc(-n2c(CCC(=O)O)ccc2-c2ccc(C)cc2)c1
→ -2.3	·	16.0	·
- C[C@H](CO)N1C[C@H](C)[C@H](CN(C)C(=O)Nc2ccc(C(F)(F)F)cc2)Oc2ccc(NS(=O)(=O)c3ccccc3)cc2C1=O
→ ·	·	25.6	0.0128
- COc1ccc(S(=O)(=O)Nc2ccc3c(c2)C(=O)N([C@@H](C)CO)C[C@H](C)[C@H](CN(C)Cc2ccc(Oc4ccccc4)cc2)O3)cc1
→ ·	40.2	46.7	-0.328
- CS(=O)(=O)N(CC(=O)Nc1cc(Cl)ccc1Oc1ccccc1)c1ccccc1F
→ -1.1	·	-7.2	·
- C[C@H](CO)N1C[C@H](C)[C@@H](CN(C)Cc2ccc3c(c2)OCO3)Oc2c(NC(=O)c3ccncc3)cccc2C1=O
→ -2.0	-13.8	-7.6	-0.0132
- C[C@@H]1CN([C@H](C)CO)C(=O)c2cccc(NC(=O)C3CC3)c2O[C@H]1CN(C)Cc1ccc(C(=O)O)cc1
→ -0.2	-32.8	-3.4	0.138
- COc1cc(NC(=O)COc2ccc(Br)cc2)ccc1NC(=O)c1ccco1
→ 1.3	·	-5.2	·
- CC(=O)c1cccc(N(CC(=O)N2CCCC2)S(C)(=O)=O)c1
→ 0.9	·	-5.3	·
- COc1ccc(NC(=O)CN2CCN(S(=O)(=O)c3ccc(Cl)cc3)CC2)cc1
→ 1.1	·	-11.4	·
- COc1ccc(CN2CCN(Cc3cccc(OC)c3OC)CC2)c(OC)c1
→ -0.4	·	-7.6	·
- C[C@H]1CN([C@@H](C)CO)C(=O)Cc2cc(NS(=O)(=O)c3cn(C)cn3)ccc2O[C@H]1CN(C)Cc1ccc(C(F)(F)F)cc1
→ 1.5	11.4	5.8	0.00735
- C=C[C@](C)(CC/C=C(\C)CC[C@H](O)C(C)(C)O)O[C@@H]1O[C@H](CO)[C@@H](O)[C@H](O)[C@H]1O
→ 0.8	-14.1	-11.0	0.75
- CC(C)(C)c1cc(C(=O)NCc2ccc(C#N)cc2)n(Cc2ccccc2)n1
→ -0.3	-36.7	-3.2	0.573
- C=CC1CN(C=O)CCC1CCC(=O)c1ccnc2ccccc12 (stereo unspecified)
→ ·	-4.7	·	0.0413
- COc1ccc(S(=O)(=O)N(C)CC(=O)Nc2ccc(Cl)c(Cl)c2)cc1
→ 1.4	·	7.7	·
- C[C@@H]1CCCCO[C@H](CN(C)C(=O)c2ccccc2)[C@@H](C)CN([C@H](C)CO)C(=O)c2cc(NC(=O)Nc3ccc(F)cc3)ccc2O1
→ -0.3	·	-9.9	-0.474
- C[C@@H]1CN([C@H](C)CO)C(=O)c2cc(NS(=O)(=O)c3ccccc3)ccc2O[C@H]1CN(C)S(=O)(=O)c1ccc(Cl)cc1
→ 1.4	-15.4	-29.3	-0.0467
- Cc1ccc(S(=O)(=O)N(C)C[C@H]2Oc3c(cccc3N(C)C)C(=O)N([C@H](C)CO)C[C@@H]2C)cc1
→ 0.7	3.6	4.4	0.327
- Cc1ccc(NC(=O)CSc2nnc(-c3ccccc3)n2-c2ccccc2)cc1Cl
→ -0.4	·	-12.9	·
- C[C@H](CO)N1C[C@H](C)[C@@H](CN(C)S(=O)(=O)c2cccs2)Oc2ccc(NC(=O)Nc3ccc(C(F)(F)F)cc3)cc2C1=O
→ -1.2	6.2	22.6	0.0869
- C[C@H](CO)N1C[C@H](C)[C@@H](CN(C)Cc2ccncc2)Oc2c(NC(=O)C3CC3)cccc2C1=O
→ 1.5	-23.3	-6.8	-0.0873
- CCn1nnc(NC(=O)COc2ccc(Cl)cc2C)n1
→ 0.3	·	-23.4	·
- Cc1ccc(S(=O)(=O)N(C)C[C@@H]2Oc3ccc(NC(=O)c4ccncc4)cc3C(=O)N([C@H](C)CO)C[C@H]2C)cc1
→ -0.6	-14.9	-12.5	-0.15
- C[C@@H]1CN([C@H](C)CO)C(=O)c2cccc(NC(=O)C3CC3)c2O[C@@H]1CN(C)C(=O)Nc1ccc(C(F)(F)F)cc1
→ 0.3	0.7	-1.2	0.799
- O=C(CN1CC(=O)Oc2ccccc21)Nc1ccc(O)cc1
→ -4.2	27.5	-9.7	0.185
- CS(=O)(=O)N(CC(=O)Nc1ccc(Oc2ccccc2)cc1)c1cc(Cl)c(Cl)cc1Cl
→ 0.0	·	54.9	·
- C[C@H]1CN([C@@H](C)CO)C(=O)c2cccc(NC(=O)C3CCCCC3)c2O[C@@H]1CN(C)Cc1ccc(Oc2ccccc2)cc1
→ ·	31.4	30.6	-0.0357
- C[C@@H]1CN([C@@H](C)CO)C(=O)c2cccc(NC(=O)C3CC3)c2O[C@H]1CN(C)C(=O)Nc1ccc(F)cc1
→ ·	-17.4	-20.4	-0.48
- Cc1onc(-c2c(F)cccc2Cl)c1C(=O)NCCCN1CCOCC1
→ 0.9	·	0.6	·
- Cc1noc(C)c1S(=O)(=O)Nc1ccc2c(c1)C(=O)N([C@H](C)CO)C[C@H](C)[C@@H](CN(C)Cc1ccc(-c3ccccc3)cc1)O2
→ -1.6	37.8	2.8	0.0865
- CCc1cccc(C)c1NC(=O)CSc1nc2ccccc2c(=O)n1-c1ccc(C)cc1
→ -0.9	·	-1.6	·
- C[C@@H]1CN([C@@H](C)CO)C(=O)c2cccc(NS(=O)(=O)c3ccc(Cl)cc3)c2O[C@@H]1CN(C)Cc1ccc(Oc2ccccc2)cc1
→ -2.0	10.8	27.0	-0.0715
- CNC[C@@H]1Oc2ccc(NC(=O)Nc3cccc4ccccc34)cc2CC(=O)N([C@H](C)CO)C[C@H]1C
→ ·	-23.9	-6.3	-0.222
- C[C@H]1CN([C@@H](C)CO)C(=O)c2cc(NC(=O)Cc3ccccc3)ccc2O[C@H]1CN(C)S(=O)(=O)c1ccc(Cl)cc1
→ -1.2	18.5	10.4	-0.256
- C[C@H](CO)N1C[C@H](C)[C@H](CN(C)S(C)(=O)=O)Oc2ccc(NC(=O)C3CCCCC3)cc2CC1=O
→ 3.6	-6.5	11.7	0.251
- CC(=O)OCC(=O)[C@@]1(O)CCC2C3CCC4=CC(=O)CC[C@]4(C)[C@@]3(F)[C@@H](O)C[C@@]21C (stereo partly specified)
→ ·	55.2	-21.3	-0.103
- CC(C)=CCC[C@](C)(O[C@@H]1O[C@H](CO[C@@H]2O[C@@H](CO)[C@H](O)[C@H]2O)[C@@H](O)[C@H](O)[C@H]1O)[C@H]1CC[C@]2(C)C1[C@H](O)CC1[C@@]3(C)CC[C@H](O[C@@H]4O[C@H](CO)[C@@H](O)[C@H](O)[C@H]4O[C@@H]4O[C@H](CO)[C@@H](O)[C@H](O)[C@H]4O)C(C)(C)C3CC[C@]12C (stereo partly specified)
→ -0.3	8.2	2.8	-0.265
- C[C@@H]1CN([C@H](C)CO)C(=O)c2cccc(NC(=O)Nc3ccc4c(c3)OCO4)c2O[C@H]1CN(C)Cc1ccc(Oc2ccccc2)cc1
→ ·	-3.3	22.9	0.0904
- C[C@@H]1C[C@@H]2O[C@H]2/C=C/C=C\C(=O)Cc2c(Cl)c(O)cc(O)c2C(=O)O1
→ -7.2	42.6	3.4	0.639
- Cc1nc(SCC(N)=O)c(C(N)=O)c(C)c1C
→ 2.1	·	-0.9	·
- CCn1c(SCc2nc3ccccc3[nH]2)nnc1-c1cccc(Cl)c1
→ 1.7	·	1.8	·
- C[C@@H]1CCCCO[C@H](CN(C)Cc2ccc(C(=O)O)cc2)[C@@H](C)CN([C@H](C)CO)C(=O)c2cc(NS(=O)(=O)c3ccccc3)ccc2O1
→ ·	-4.3	-10.2	-0.0437
- CC(=O)NC(c1cccc([N+](=O)[O-])c1)c1c(O)ccc2ccccc12 (stereo unspecified)
→ -3.2	·	4.0	·
- Cc1ccc(S(=O)(=O)N(C)C[C@@H]2Oc3c(NC(=O)C4CCCCC4)cccc3C(=O)N([C@H](C)CO)C[C@H]2C)cc1
→ 1.5	34.9	-9.1	-0.074
- COc1ccc2nc(Nc3nc(C)c(CCC(C)C)c(=O)[nH]3)nc(C)c2c1
→ -2.0	·	23.0	·
- O=S1(=O)N=C(N(Cc2ccccc2O)c2ccc(Cl)cc2)c2ccccc21
→ -3.5	·	19.3	·
- C[C@H](CO)N1C[C@H](C)[C@H](CN(C)Cc2ccc(Cl)c(Cl)c2)Oc2ccc(NC(=O)Nc3ccccc3)cc2C1=O
→ 0.1	19.3	17.0	-0.338
- C[C@@H]1CN([C@H](C)CO)C(=O)Cc2cc(NC(=O)Cc3cn(C)c4ccccc34)ccc2O[C@H]1CN(C)Cc1ccncc1
→ -1.5	-14.2	9.8	0.352
- COC(=O)[C@H](Cc1ccc(O)cc1)NC(=O)c1cccc(Cl)c1
→ -22.7	-16.4	-3.9	-0.0808
- CC(=O)OCC1=C[C@H](O)[C@@H]2C(C(=O)O)=CO[C@@H](O[C@@H]3O[C@H](CO)[C@@H](O)[C@H](O)[C@H]3O)[C@H]12
→ 2.0	-4.5	12.7	0.0138
- CC(C)COc1ccc2c3c(c(=O)oc2c1)CCCC3
→ -1.7	-1.6	-24.5	-0.38
- COc1c2ccoc2nc2c(OC)c(OCC(O)C(C)(C)O)ccc12 (stereo unspecified)
→ ·	-21.1	-4.2	-0.545
- Clc1ccc(-c2nnc(SCC3CC3)o2)cc1
→ -0.1	-116.5	36.1	-0.245
- C[C@H]1CN([C@@H](C)CO)C(=O)Cc2cc(NC(=O)Cc3cn(C)c4ccccc34)ccc2O[C@H]1CN(C)C(=O)NC1CCCCC1
→ ·	-0.9	9.8	0.0648

# Some of the entries so far, with tabs:
Molecule	PD-1 reversal	Hedgehog inh	MITF inh	YB-1 expr inh
Cc1ccc(S(=O)(=O)Nc2ccc3c(c2)C(=O)N([C@H](C)CO)C[C@H](C)[C@@H](CN(C)Cc2ccc(C(F)(F)F)cc2)O3)cc1	·	-2.1	2.7	-0.0298
COc1ccc2nc(Nc3nc(C)c(CCC(C)C)c(=O)[nH]3)nc(C)c2c1	-2.0	·	23.0	·

# (next part)
# Every second line gives: PD-1 reversal	Hedgehog inh	MITF inh	YB-1 expr inh
- Cc1ccc(S(=O)(=O)Nc2ccc3c(c2)CC(=O)N([C@@H](C)CO)C[C@H](C)[C@H](CN(C)S(=O)(=O)c2ccc(F)cc2)O3)cc1
→ ·	-7.9	-19.2	·
- Cc1ccc(S(=O)(=O)N(C)C[C@@H]2Oc3ccc(NC(=O)Cn4cnnn4)cc3C(=O)N([C@@H](C)CO)C[C@H]2C)cc1
→ 0.6	7.6	6.9	-0.0338
- Cc1ccc(S(=O)(=O)Nc2cccc3c2O[C@H](CN(C)C(=O)Nc2c(C)noc2C)[C@@H](C)CN([C@H](C)CO)C3=O)cc1
→ 1.8	-57.6	-0.9	-0.338
- CC(=O)OCC(=O)[C@@]12OC(C)(C)O[C@@H]1CC1C3C[C@H](F)C4=CC(=O)C=C[C@]4(C)[C@@]3(F)[C@@H](O)C[C@@]12C (stereo partly specified)
→ ·	53.4	2.9	-0.191
- C[C@H]1CN([C@@H](C)CO)C(=O)c2cc(NC(=O)Cc3cn(C)c4ccccc34)ccc2O[C@H]1CN(C)C(=O)Nc1ccc(C(F)(F)F)cc1
→ -1.2	27.8	29.2	-1.66
- C[C@H]1CN([C@@H](C)CO)C(=O)c2cc(NC(=O)NC3CCCCC3)ccc2O[C@@H]1CN(C)S(=O)(=O)c1cn(C)cn1
→ -0.1	·	-12.7	1.04
- CC(C)NC(=O)N(C)C[C@@H]1Oc2ccc(NS(=O)(=O)c3ccc(F)cc3)cc2C(=O)N([C@@H](C)CO)C[C@H]1C
→ -0.2	-32.0	-6.6	-0.279
- COc1ccccc1NC(=O)c1ccccc1S(=O)(=O)c1ccccc1[N+](=O)[O-]
→ 2.9	·	-19.0	·
- C[C@H](CO)N1C[C@H](C)[C@H](CN(C)C(=O)Nc2ccc(C(F)(F)F)cc2)Oc2ccc(NC(=O)Cc3ccccc3)cc2C1=O
→ ·	-48.2	17.1	0.204
- COc1ccc(NC(=O)Nc2cccc3c2O[C@@H](CN(C)C(=O)Nc2ccc(F)cc2)[C@H](C)CN([C@@H](C)CO)C3=O)cc1
→ 0.0	-23.4	-8.0	0.287
